T cruzi inh – inhibitors of intracellular T. cruzi growth, primary screen, luminescence, NIH3T3 host cells | inhibition, % (concentration not given with the values) | T. cruzi beta-gal in NIH3T3, 90 h | 1.4% of 300,000 active;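 active means mean inhibition across valid replicates above about 55%, limit read from the data; inconclusive means mean below that limit but half or more replicates reach it; inactive means mean below it, under half of replicates reach it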;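 further: signal also drops with host cell toxicity which is not excluded here; 0% = plate median of DMSO wells and 100% = zero luminescence signal; higher percent means less beta-gal luminescence so fewer parasites; stock transfer was 50 nL into about 50 µL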
FGF22 binding – binders of human FGF22 protein, primary screen, FGF22 synaptogenesis inhibitor project, biophysical, thermal shift, single point | 1.5% of 340,000 active | recombinant FGF22 thermal shift, SYPRO orange fluorescence; percent of sucrose octasulfate shift, DMSO zero | Fibroblast growth factor 22 (Homo sapiens), Q9HCT0 | calls only at 9.99 µM;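 active means melting point raised past a set limit in the mean and every replicate; inconclusive means no clear call; three in four hits are not shown here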
Target sequence (Q9HCT0 whole entry, looked up): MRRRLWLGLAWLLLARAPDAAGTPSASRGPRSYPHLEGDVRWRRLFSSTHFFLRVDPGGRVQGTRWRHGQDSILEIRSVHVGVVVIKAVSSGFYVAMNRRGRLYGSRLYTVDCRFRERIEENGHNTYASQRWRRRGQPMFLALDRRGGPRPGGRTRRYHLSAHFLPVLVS
E coli growth – E. coli growth inhibition, primary screen, OD600 | Escherichia coli growth, 23 h; active compounds read low | OD600 absorbance (concentration not given with the values) | 0.21% of 330,000 active | AID 1053175, 2014;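 active means OD600 absorbance below the run mean of sample wells minus 3.6 SD, in any replicate, cut at about 0.56 in these data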;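 further: stock transfer was 300 nL into about 60 µL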
MLL AF4-AF9 inh – inhibitors of AF4 peptide binding to AF9, primary screen, biochemical, AlphaScreen, biotin-AF4 peptide, FLAG-AF9, single point. inhibition, % at 10 µM. 0.47% of 350,000 active. AID 651704, 2012;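 active means every replicate reaching a set inhibition limit, whatever the replicate mean, cut at about 25% in these data; inconclusive means mean inhibition reaches that limit but some replicates miss it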;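 further: 0% = plate neutral control median and 100% = total signal loss; the record names both 10 and 1 µM as test concentration; the first replicate is given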
Target sequence (P42568 whole entry, looked up): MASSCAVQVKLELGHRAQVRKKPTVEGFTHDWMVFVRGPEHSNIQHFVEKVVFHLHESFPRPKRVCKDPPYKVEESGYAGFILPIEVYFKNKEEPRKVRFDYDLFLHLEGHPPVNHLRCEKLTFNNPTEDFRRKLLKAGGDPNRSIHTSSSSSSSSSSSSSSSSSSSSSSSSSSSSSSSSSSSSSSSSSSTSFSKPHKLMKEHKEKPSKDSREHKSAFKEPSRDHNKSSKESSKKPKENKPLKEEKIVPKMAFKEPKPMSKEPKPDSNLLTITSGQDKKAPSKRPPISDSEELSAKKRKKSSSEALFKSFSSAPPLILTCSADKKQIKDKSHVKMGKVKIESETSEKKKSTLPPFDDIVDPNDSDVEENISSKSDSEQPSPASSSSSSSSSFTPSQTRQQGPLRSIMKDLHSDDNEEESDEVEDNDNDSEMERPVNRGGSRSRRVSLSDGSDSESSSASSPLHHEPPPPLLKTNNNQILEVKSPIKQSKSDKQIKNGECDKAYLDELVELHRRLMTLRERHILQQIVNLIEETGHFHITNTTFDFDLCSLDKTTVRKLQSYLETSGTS
UCH37 DUB inh – inhibitors of human UCH37 deubiquitinase, primary screen, biochemical, Ub-AMC cleavage, fluorescence | inhibition, % (test concentration not listed) | 0.33% of 330,000 active | Ubiquitin carboxyl-terminal hydrolase isozyme L5 (Homo sapiens), Q9Y5K5 | purified proteasome/UCH37;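 active means mean of two replicates above 20%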;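 further: 0% = compound-free wells with enzyme and 100% = wells lacking proteasome; stock transfer was 100 nL into about 20 µL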
Target sequence (Q9Y5K5 whole entry, looked up): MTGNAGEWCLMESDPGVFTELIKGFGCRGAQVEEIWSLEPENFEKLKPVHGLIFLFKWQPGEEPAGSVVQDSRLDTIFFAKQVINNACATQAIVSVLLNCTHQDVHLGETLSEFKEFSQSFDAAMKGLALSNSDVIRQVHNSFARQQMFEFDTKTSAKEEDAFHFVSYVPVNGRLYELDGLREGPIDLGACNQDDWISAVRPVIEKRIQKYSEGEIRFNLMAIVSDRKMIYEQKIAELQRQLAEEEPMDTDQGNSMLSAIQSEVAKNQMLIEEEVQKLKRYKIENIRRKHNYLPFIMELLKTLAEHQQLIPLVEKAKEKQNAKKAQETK
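Material: human UCH37 enzyme supplied as purified proteasome complex. Measure: % inhibition of Ub-AMC cleavage fluorescence. Medium: pH 7.4 Tris-HCl (50 mM) with ovalbumin, ATP-MgCl2, DTT. Times: 30 min preincubation with enzyme, 25 min cleavage at room temperature. Detection: AMC fluorescence intensity at 355/460 nm.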
Bfl-1 A1 inh – caspase 3/7 activation in MEF A1-2A-BIM cells, primary screen, A1 inhibitor project, cell-based, luminescence, HTS; AID 2462, 2010; Caspase-Glo 3/7 luminescence, 3 h; percent of clofoctol response, vehicle zero; 0.066% of 330,000 active; caspase activation, % (test concentration not listed);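 active means over half of replicate activation scores above 10%, or exactly half above 10 with the replicate mean above 10; inconclusive means replicate mean below 10 yet half the replicates above 10; inactive means over half of replicates below 10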;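 further: wells of about 30 µL received 50 nL stock; many hits fall short of the cut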
Ecoli rRNA inh – reduced GFP signal of wild-type E. coli, primary screen, bacterial rRNA inhibitor project, GFP/RFP fluorescence, OD600, single point | 1.6% of 350,000 active | E. coli WT GFP vs humanized-ribosome RFP mutants, 24 h; active compounds read low; DMSO median 0, no signal -100 | GFP signal change (wild-type ribosome), % (test concentration not listed);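 active means significant combined selectivity score with lowered wild-type GFP, culture density cut under 30%, mutant RFP and density less affected; inactive means any of these conditions unmet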; further: one replicate is shown; some compounds called inactive have numbers as strong as hits
Beta cell apopt – inhibitors of cytokine-induced beta cell apoptosis, primary screen, luminescence; INS-1E cytokine-induced death, ATP luminescence, 48 h; percent of positive-control rescue, neutral wells zero; 0.8% of 300,000 active; protection from apoptosis, % (test concentration not listed);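 active means all replicates at 75% or more, or half of them and the mean; inconclusive means half reach 75% but not the mean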;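 further: 0% = cytokine-treated negative control wells and 100% = positive control rescue; higher means more ATP so stronger rescue from cytokine killing; wells of about 40 µL received 100 nL stock; the first replicate is given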
Ecoli rRNA inh OD600 – also measured in Ecoli rRNA inh; calls as there; OD600 change, %; measured here: OD600 growth;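 optical density of the mix in the first replicate; 0 = DMSO median and -100 = no signal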
Ecoli rRNA inh RFP – further read-out of Ecoli rRNA inh, marked with its call; RFP signal change, %; measured here: RFP humanized mutant strains;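 first replicate; 0 = DMSO median and -100 = no signal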
An asterisk follows results filed as active; i = inactive; ? = inconclusive; nt = not tested or not shown. An excerpt, so the mix of outcomes need not match the whole.

Values run as follows: T cruzi inh | FGF22 binding | E coli growth | MLL AF4-AF9 inh | UCH37 DUB inh | Bfl-1 A1 inh | Ecoli rRNA inh | Ecoli rRNA inh OD600 | Ecoli rRNA inh RFP | Beta cell apopt
O=C(c1ccc2snnc2c1)N1CCCC1
→ -1.2 | nt | 0.713 | nt | 1.9 | -0.4 | nt | nt | nt | 1.4
CC(C)Cn1c(CNC(=O)c2ccccc2)nc2ccccc21
→ -6.6 | nt | 0.692 | nt | 5.3 | 0.4 | nt | nt | nt | -1.8
COc1ccccc1NC(=O)C1=C(C)Nc2nc(-c3ccccc3)nn2C1c1ccccn1 (centres undefined)
→ 1.3 | nt | 0.734 | nt | 1.0 | -0.4 | nt | nt | nt | -5.9
CCSc1nnc([C@H](C)NC(=O)OC(C)(C)C)o1
→ -4.6 | nt | 0.697 | nt | 2.7 | 1.7 | nt | nt | nt | -7.5
CCCn1nnc(NC(=O)/C=C/c2ccc(C(C)C)cc2)n1
→ -5.7 | i | 0.626 | nt | 4.3 | -0.9 | 1.1 | -10.1 | -6.2 | -5.9
CCC1NC(=S)N(C2CCCCC2)C1=O (centres undefined)
→ -22.1 | nt | 0.65 | nt | 2.3 | 0.2 | nt | nt | nt | 2.3
CC1CCN(C(=O)COC(=O)Cc2ccc(Br)cc2)CC1
→ -1.6 | i | 0.677 | 2.3 | 2.9 | -1.9 | -14.2 | -8.8 | 4.2 | -2.7
O=C(c1ccccc1)N1CCCCC(Cl)C1=O (centres undefined)
→ -14.5 | i | 0.668 | -1.2 | 2.4 | 0.3 | -0.7 | 6.2 | -1.0 | -2.2
Cc1ccc(-n2c(C)cc3c2CCCC3=O)cc1
→ 14.1 | nt | 0.664 | nt | 1.0 | 0.0 | nt | nt | nt | -5.8
CCCNC(=O)C12CCC(C)(c3nc4cc(C)c(C)cc4nc31)C2(C)C (centres undefined)
→ nt | i | 0.681 | -4.7 | 3.5 | 0.6 | -36.0 | -33.1 | -1.2 | 0.1
CC(C)Cc1nnc(NC(=O)CCC(=O)N2CCOCC2)s1
→ 0.7 | nt | 0.688 | nt | 2.9 | 0.5 | nt | nt | nt | 4.2
COc1ccc(NS(=O)(=O)c2ccc3oc(=S)[nH]c3c2)cc1
→ -15.6 | i | 0.712 | -11.1 | 2.2 | -0.1 | 8.9 | 6.6 | -1.6 | 1.5
Cc1cc(C(F)(F)F)nc(SCc2ccc(C(=O)O)o2)n1
→ -22.1 | nt | 0.707 | nt | 0.9 | -0.1 | nt | nt | nt | -2.2
CC(=O)NC1(C(F)(F)F)N=C2SCCN2C1=O (centres undefined)
→ 1.7 | nt | 0.704 | nt | -0.3 | -0.5 | nt | nt | nt | -11.7
COC(=O)CCCC1=CC2=CC(=O)C(C)(OC(=O)c3cccs3)C(=O)C2=CN1c1cccc(C#N)c1 (centres undefined)
→ 12.7 | nt | 0.722 | nt | 4.6 | 0.6 | nt | nt | nt | -7.1
COc1ccc(S(=O)(=O)N2CCN(CC(=O)Nc3cc(C(F)(F)F)ccc3Cl)CC2)cc1
→ 23.3 | nt | 0.773 | nt | 0.1 | 0.6 | nt | nt | nt | -0.1
N#C/C(=C(/O)c1cccs1)c1nc2ccccc2[nH]1
→ -13.3 | i | 0.718 | -3.5 | -116.9 | -0.8 | 17.8 | 16.8 | 0.1 | 16.2
CCOc1cc(N2CCOCC2)c(OCC)cc1NC(=O)COC(=O)c1ccc(OC)c([N+](=O)[O-])c1
→ nt | i | 0.67 | 0.8 | 0.3 | nt | 5.4 | 17.5 | -2.7 | nt
Nc1cc(OC(=O)c2ccc(F)cc2)nn1S(=O)(=O)c1ccccc1
→ -12.6 | i | 0.662 | -2.7 | -1.5 | 0.8 | 9.9 | 16.3 | -2.3 | -7.1
Cc1nc([N+](=O)[O-])cn1CC(=O)c1ccc(Br)cc1
→ 3.2 | i | 0.666 | -1.2 | 1.6 | 0.0 | 3.8 | 6.8 | -5.7 | -7.7
O=C(c1cc(S(=O)(=O)N2CCOCC2)ccc1F)N(Cc1nnc(-c2ccccc2Cl)o1)C1CC1
→ 8.2 | i | 0.705 | 9.2 | 2.7 | -0.4 | -6.3 | -5.3 | 3.5 | -6.3
CCOC(=O)c1nnn(-c2nonc2N)c1COc1cc(C)c(Cl)c(C)c1
→ 23.3 | nt | 0.801 | nt | 0.1 | 0.2 | nt | nt | nt | 2.9
Cc1nc(-c2cccnc2)sc1C(=O)Nc1ccc(C(F)(F)F)cc1
→ 36.9 | nt | 0.677 | nt | 4.5 | 0.2 | nt | nt | nt | 0.2
Cc1cccc(NC(=O)c2ccc(OCC(=O)NCc3ccccc3)cc2)c1C
→ -23.3 | nt | 0.728 | nt | 4.1 | -0.8 | nt | nt | nt | -3.6
C#CC(CC)(CC)NC(=O)c1cc(S(=O)(=O)N2CCCCC2)ccc1N1CCOCC1
→ nt | i | 0.694 | -0.7 | 0.7 | nt | -8.1 | -9.4 | 2.2 | nt
Cn1c(Cn2nnc3ccccc32)nnc1SCC(=O)N1c2ccccc2Sc2ccccc21
→ 28.6 | i | 0.703 | 4.3 | 3.1 | 0.2 | -1.0 | -3.7 | 7.8 | 6.9
COc1ccc(C)cc1NC(=O)CN1C(=O)C2CC=CCC2C1=O (centres undefined)
→ nt | i | 0.657 | -0.4 | 2.8 | -0.2 | 1.8 | 7.2 | -0.6 | -3.8
CC(=O)c1cc(-c2ccccc2)n(CC(=O)NC2CCCCC2)c1C
→ -11.5 | i | 0.724 | -1.6 | 3.0 | 2.5 | 10.0 | 14.8 | 1.5 | -10.2
CN(C)C(=S)SCC(=O)NC(=O)NC(C)(C)C
→ -1.7 | i | 0.68 | -2.1 | 1.5 | 0.0 | 16.9 | -4.0 | 2.5 | 3.8
CCOC(=O)CSc1nc2c(cnn2-c2ccc(Cl)cc2)c(=O)[nH]1
→ -9.9 | i | 0.684 | -9.7 | 2.5 | 1.5 | 16.2 | 14.2 | 0.6 | 1.3
O=C(NCC1CCCO1)c1cc2c(s1)CS(=O)(=O)C2 (centres undefined)
→ -14.8 | nt | 0.705 | nt | 1.6 | -0.1 | nt | nt | nt | 3.8
CSc1nc(SC)c2c3c(oc2n1)COC(C)(C)C3
→ 13.2 | nt | 0.661 | nt | -0.2 | 0.6 | nt | nt | nt | -6.5
CC1CCCCC1NC(=O)c1cncc(Br)c1 (centres undefined)
→ 12.6 | nt | 0.7 | nt | 3.7 | -0.4 | nt | nt | nt | 3.6
CN1CCN(C(=O)c2ccc3c(c2)N(Cc2ccc(F)cc2)C(=O)c2ccccc2S3=O)CC1 (centres undefined)
→ -8.2 | i | 0.677 | -2.7 | 4.3 | -0.2 | 6.0 | 6.5 | -1.0 | 0.6
CCCCc1nc(SCC(=O)N2CCOCC2)c2c(=O)n(C)c(=O)n(C)c2n1
→ 8.1 | i | 0.673 | -0.9 | 0.2 | -0.5 | 11.9 | 11.0 | -0.1 | -4.0
Cc1ccc(/C=C/C(=O)NCCCN2CCN(CCCNC(=O)/C=C/c3ccc(C)o3)CC2)o1
→ 6.1 | nt | 0.698 | nt | 7.5 | 0.3 | nt | nt | nt | -2.3
CC(C)(C)NC(=O)CSc1ccc(S(=O)(=O)N2CCOCC2)cn1
→ nt | i | 0.622 | 3.0 | -0.1 | 0.1 | 9.7 | 14.6 | 2.4 | -2.1
CCOc1ccc(C(=O)N2CCCCCC2)cc1
→ -17.3 | nt | 0.789 | nt | -1.4 | 1.3 | nt | nt | nt | nt
Cc1ccc(S(=O)(=O)N/N=C/c2ccc3nccnc3c2)cc1
→ -5.4 | i | nt | 0.7 | nt | 0.7 | 14.9 | 3.8 | -1.1 | -2.3
O=C(NCCS(=O)(=O)NCc1ccccc1Cl)c1ccccc1
→ -2.7 | nt | nt | -1.5 | nt | 2.5 | 8.3 | 6.7 | 1.1 | -1.2
COC(=O)c1ccc(N2CCN(C)CC2)c(NC(=O)COc2ccccc2)c1
→ 29.8 | i | 0.704 | 1.4 | 1.8 | 0.6 | 1.5 | 3.9 | -1.0 | 1.8
COc1ccc(C(=O)COC(=O)CCNS(=O)(=O)c2ccccc2)cc1Br
→ -9.5 | i | 0.711 | -1.9 | 4.3 | 1.0 | -0.5 | -3.0 | 1.0 | -1.9
c1c2c(cc3sc(N4CCOCC4)nc13)OCO2
→ -7.6 | nt | 0.699 | nt | 2.6 | -8.3 | nt | nt | nt | -5.8
CC(NC(=O)C(C)N1CCN(Cc2ccccc2)CC1)c1ccccc1 (centres undefined)
→ 17.3 | i | 0.675 | -8.2 | 3.8 | 0.3 | 11.9 | 11.4 | -0.6 | -1.1
COc1c(C(=O)Nc2nnc(C3CC3)s2)csc1Cl
→ -6.9 | i | 0.653 | -3.7 | 0.3 | -1.4 | 0.6 | 14.6 | -1.4 | -1.4
COc1ccc(C#Cc2c(-c3ccc(OC)cc3)oc3ccc(-c4ccc5c(c4)OCO5)cc23)cc1
→ -5.3 | i | 0.729 | -0.6 | -180.8 | 0.3 | 10.9 | 17.9 | -1.3 | -7.4
CC(=O)Nc1ccc(NC(=O)C(C)OC(=O)CCC2CCCCC2)cc1 (centres undefined)
→ 2.1 | i | 0.726 | -6.6 | -1.3 | -0.6 | 16.9 | 14.6 | 3.2 | 1.5
O=C(CCSCc1cccc(Cl)c1)NCCc1ccccc1
→ 0.7 | i | 0.625 | 0.3 | 0.4 | 0.0 | -49.2 | -42.0 | -12.1 | 6.1
CC(=O)OC1CCC2(C)C(=CCC3C4CC(=O)N(O)C(=O)C4(C)CCC32)C1 (centres undefined)
→ nt | i | 0.724 | 2.6 | -0.4 | nt | -14.5 | -24.1 | 4.8 | nt
COc1ccc2[nH]c(C)c(CCN3C(=O)OC(C)(C)C3(C)O)c2c1 (centres undefined)
→ -7.7 | i | 0.629* | -0.9 | 2.9 | 0.4 | 6.5 | -1.0 | -6.1 | -2.0
COc1ccc(N2C(=O)C3CCCN3C2c2cccc(Br)c2)cc1 (centres undefined)
→ -2.7 | i | 0.781 | 1.0 | 1.4 | 0.9 | 5.3 | -1.0 | 2.0 | -7.7
CCN(CC)C(=O)c1ccccc1NC(=O)CN1C(=O)c2ccccc2S1(=O)=O
→ -11.2 | i | 0.609 | -5.4 | 1.9 | -0.1 | 10.5 | 11.3 | -1.1 | -6.1
COc1cc(NC(=O)C(C)Oc2ccccc2)c(OC)cc1NC(=O)c1ccccc1 (centres undefined)
→ 20.9 | nt | 0.68 | nt | -1.1 | 0.4 | nt | nt | nt | nt
CC(C)CC(NC(=O)C1CCCN1C(=O)CNC(=O)OCc1ccccc1)C(=O)O (centres undefined)
→ -5.4 | i | 0.638 | 1.7 | 1.7 | ? | 13.4 | 14.8 | 0.0 | -1.6
CCCOc1ccc(C(=O)Nn2c(C)nc3ccccc3c2=O)cc1
→ 2.2 | nt | 0.7 | nt | 0.6 | -0.1 | nt | nt | nt | 0.8
